UCH37 inh: inhibitors of human deubiquitinating enzyme UCH37. purified proteasome/UCH37, Ub-AMC cleavage fluorescence. inhibition, % (test concentration not listed). 330,000 compounds, 0.33% hits. Q9Y5K5. AID 588478;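 active = mean of two replicates above 20%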;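 also: 0% = compound-free wells with enzyme and 100% = wells lacking proteasome; stock transfer was 100 nL into about 20 µL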
Target sequence (Q9Y5K5 whole entry, looked up): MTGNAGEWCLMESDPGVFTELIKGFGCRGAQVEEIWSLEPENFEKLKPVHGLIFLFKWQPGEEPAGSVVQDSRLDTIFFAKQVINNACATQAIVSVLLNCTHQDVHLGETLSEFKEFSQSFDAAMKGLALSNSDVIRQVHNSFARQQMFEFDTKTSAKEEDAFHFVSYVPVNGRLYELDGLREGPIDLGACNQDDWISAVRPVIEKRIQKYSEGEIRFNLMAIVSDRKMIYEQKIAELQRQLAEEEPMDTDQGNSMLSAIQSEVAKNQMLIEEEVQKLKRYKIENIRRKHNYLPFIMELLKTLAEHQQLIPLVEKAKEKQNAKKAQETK
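Material: Human UCH37 enzyme supplied as purified proteasome complex | Schedule: 30 min compound-proteasome preincubation then 25 min substrate reaction, room temperature | Detection: AMC fluorescence from Ub-AMC cleavage, excitation 355 nm, emission 460 nm | Benchmarks: Wells without proteasome as full block, compound-free enzyme plus substrate as uninhibited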
Ecoli growth: inhibitors of Escherichia coli growth | OD600, 23 h; stronger effect = lower value | OD600 absorbance (test concentration not listed) | 330,000 compounds, 0.21% hits | AID 1053175;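 active = OD600 absorbance below the run mean of sample wells minus 3.6 SD, in any replicate, cut at about 0.56 in these data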;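 also: stock transfer was 300 nL into about 60 µL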
FGF22 binding: binders of recombinant human FGF22 by thermal shift; Q9HCT0; SYPRO orange fluorescence; percent of sucrose octasulfate shift, DMSO zero; calls only at 9.99 µM; 340,000 compounds, 1.5% hits;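 active = melting point raised past a set limit in the mean and every replicate; inconclusive = no clear call; three in four hits are not shown here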
Target sequence (Q9HCT0 whole entry, looked up): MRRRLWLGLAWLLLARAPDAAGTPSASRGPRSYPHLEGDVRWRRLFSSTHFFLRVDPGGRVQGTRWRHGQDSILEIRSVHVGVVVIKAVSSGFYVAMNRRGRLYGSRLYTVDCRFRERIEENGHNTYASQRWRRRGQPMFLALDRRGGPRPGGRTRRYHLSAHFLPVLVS
Beta cell apopt: blocks beta cell apoptosis; 300,000 compounds, 0.8% hits; AID 435005; protection from apoptosis, % (no concentration beside the values); INS-1E cytokine-induced death, ATP luminescence, 48 h; percent of positive-control rescue, neutral wells zero;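 active = all replicates at 75% or more, or half of them and the mean; inconclusive = half reach 75% but not the mean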;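 also: 0% = cytokine-treated negative control wells and 100% = positive control rescue; higher means more ATP so stronger rescue from cytokine killing; wells of about 40 µL received 100 nL stock; the first replicate is given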
Bfl-1 A1 inh: inhibitors of the anti-apoptotic protein A1, read as caspase activation; 330,000 compounds, 0.066% hits; caspase activation, % (concentration not given with the values); AID 2462; MEF A1-2A-BIM cells, Caspase-Glo 3/7 luminescence, 3 h; percent of clofoctol response, vehicle zero;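 active = over half of replicate activation scores above 10%, or exactly half above 10 with the replicate mean above 10; inconclusive = replicate mean below 10 yet half the replicates above 10; inactive = over half of replicates below 10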;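 also: wells of about 30 µL received 50 nL stock; many hits fall short of the cut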
rRNA inh HTS: inhibitors of bacterial rRNA selective over humanized ribosomes; 350,000 compounds, 1.6% hits; E. coli WT GFP vs humanized-ribosome RFP mutants, fluorescence, 24 h; stronger effect = lower value; DMSO median 0, no signal -100; GFP signal change (wild-type ribosome), % (concentration not given with the values);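 active = significant combined selectivity score with lowered wild-type GFP, culture density cut under 30%, mutant RFP and density less affected; inactive = any of these conditions unmet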; also: one replicate is shown; some compounds called inactive have numbers as strong as hits
T cruzi inh: blocks replication of Trypanosoma cruzi; T. cruzi beta-gal in NIH3T3, luminescence, 90 h; AID 1885; 300,000 compounds, 1.4% hits; inhibition, % (test concentration not listed);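 active = mean inhibition across valid replicates above about 55%, limit read from the data; inconclusive = mean below that limit but half or more replicates reach it; inactive = mean below it, under half of replicates reach it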;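 also: signal also drops with host cell toxicity which is not excluded here; 0% = plate median of DMSO wells and 100% = zero luminescence signal; higher percent means less beta-gal luminescence so fewer parasites; stock transfer was 50 nL into about 50 µL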
AF4-AF9 inh: blocks AF4 peptide binding to human AF9 | inhibition, % at 10 µM | P42568 | 350,000 compounds, 0.47% hits | AlphaScreen, biotin-AF4 peptide binding to FLAG-AF9;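 active = every replicate reaching a set inhibition limit, whatever the replicate mean, cut at about 25% in these data; inconclusive = mean inhibition reaches that limit but some replicates miss it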;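 also: 0% = plate neutral control median and 100% = total signal loss; the record names both 10 and 1 µM as test concentration; the first replicate is given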
Target sequence (P42568 whole entry, looked up): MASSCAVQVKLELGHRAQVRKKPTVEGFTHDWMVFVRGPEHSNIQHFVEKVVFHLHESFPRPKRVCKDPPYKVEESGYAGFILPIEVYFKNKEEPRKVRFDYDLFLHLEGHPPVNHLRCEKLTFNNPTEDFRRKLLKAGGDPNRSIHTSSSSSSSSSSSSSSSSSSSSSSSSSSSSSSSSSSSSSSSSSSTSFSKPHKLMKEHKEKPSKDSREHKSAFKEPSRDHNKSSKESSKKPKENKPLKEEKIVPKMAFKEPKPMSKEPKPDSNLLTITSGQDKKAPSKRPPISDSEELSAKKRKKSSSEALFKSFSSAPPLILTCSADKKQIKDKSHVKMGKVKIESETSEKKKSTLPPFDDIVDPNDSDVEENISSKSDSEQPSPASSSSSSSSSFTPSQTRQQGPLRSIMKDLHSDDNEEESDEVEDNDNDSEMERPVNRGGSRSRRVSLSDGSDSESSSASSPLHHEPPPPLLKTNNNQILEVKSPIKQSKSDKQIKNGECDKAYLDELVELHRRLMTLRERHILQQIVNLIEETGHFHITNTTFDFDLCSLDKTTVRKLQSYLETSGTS
rRNA inh HTS OD600: recorded beside rRNA inh HTS, whose call it bears; OD600 change, %; measured here: OD600 growth;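 optical density of the mix in the first replicate; 0 = DMSO median and -100 = no signal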
rRNA inh HTS RFP: further read-out of rRNA inh HTS, marked with its call; RFP signal change, %; measured here: RFP humanized mutant strains;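 first replicate; 0 = DMSO median and -100 = no signal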
Numbers without * were called inactive; i = inactive; ? = inconclusive; . = no result given. This is a subset; the hit share may differ from the screen's.

SMILES	UCH37 inh	Ecoli growth	FGF22 binding	Beta cell apopt	Bfl-1 A1 inh	rRNA inh HTS	rRNA inh HTS OD600	rRNA inh HTS RFP	T cruzi inh	AF4-AF9 inh
O=C(NCCc1ccc(C(F)(F)F)cc1)C1CCC(=O)N(CCCc2ccccc2)C1 (stereo not given)	0.9	0.7	i	-6	0.6	-46*	-24*	-5.7*	8	-0.6
O=C(/C=C/c1ccccc1)N/C(=C/c1ccccc1)C(=O)Nc1ccccc1O	1.3	0.7	.	26	0.2	.	.	.	-15	.
COc1ccccc1NC(=S)N1CCC(NC(=O)C23CC4CC(CC(C4)C2)C3)CC1	-0.4	0.71	i	2	0.0	20	14	3.9	37	-1.9
Cc1ccc(NC(=O)CN(C)C(=O)/C=C/c2cccs2)cc1	5.4	0.67	i	-9	0.0	6	-2	-4.9	1	-0.5
Cc1nc2c3ccccc3nc(NNC(=O)CCC(=O)NCCN3CCN(c4ccccc4)CC3)n2n1	2.4	0.67	i	41	0.0	10	16	2.5	-5	-0.4
CCC(Oc1ccccc1)C(=O)N(C)CC(=O)N(CC(C)C)c1c(N)n(CC(C)C)c(=O)[nH]c1=O (stereo not given)	3.1	0.63	i	1	0.0	6	4	-1.2	-7	-0.3
COc1ccc(NC(=O)c2ccc3ccccc3c2)cc1NS(=O)(=O)c1ccc(F)cc1	4.4	0.73	i	1	0.8	-3	-2	9.9	26	-1.9
CCOc1ccc(C2=CSC3=NCCN23)cc1[N+](=O)[O-]	3.5	0.65	i	2	0.9	14	14	1.5	-3	1.8
COc1ccc(OC)c(N(CC(=O)NCCSCc2ccc(C)cc2)S(C)(=O)=O)c1	1.1	0.63	i	4	0.6	16	12	2.0	-9	0.1
CC(C)OC(=O)c1cc(C(=O)c2cc(Cl)ccc2O)coc1=N	-6.8	0.64	.	-7	-0.1	-11	-26	-4.8	19	0.2
CCC(CC)C(=O)Nc1ccc(C)cc1O	-1.2	0.72	i	-5	-0.3	14	21	5.3	-1	-2.7
Cc1c(C(=O)NC(C)c2ccccn2)oc2c(Cl)cccc12 (stereo not given)	0.5	0.66	i	.	.	2	2	-1.6	.	3.0
S=C(NC12CC3CC(CC(C3)C1)C2)N1CCCC1	2.7	0.65	i	1	0.5	0	13	-6.2	-10	1.0
COc1ccc(CC(=O)NCC2CCCN(Cc3cc(OC)cc(OC)c3)C2)cc1 (stereo not given)	0.7	0.7	i	.	1.7	6	9	2.9	58*	-2.3
O=C(O)C1C2CCC(O2)C1C(=O)Nc1ccc(Br)cc1F (stereo not given)	-1.4	0.68	i	-8	0.2	-2	4	-5.6	-19	1.9
C/C(=N\NC(=O)Cc1cccn1C)c1ccc([N+](=O)[O-])cc1	.	.	i	0	0.8	11	8	4.6	.	0.7
Cc1ccc(C(=O)Nc2ccc(C(=O)N/N=C/c3ccccn3)cc2)cc1	.	.	i	-4	0.5	.	.	.	4	1.6
CC(NCc1ccc(S(N)(=O)=O)cc1)C(=O)Nc1cccc(Cl)c1 (stereo not given)	3.0	0.69	i	-10	0.0	1	-10	-5.2	-8	0.7
COC(=O)c1c(C)n(-c2ccccc2)c2ccc(O)cc12	1.9	0.68	.	-2	-0.3	.	.	.	14	.
N#Cc1ccc(Cn2ccnc2C(=O)Nc2ccccc2)cc1	6.3	0.69	i	-6	-1.2	.	.	.	1	-1.5
CCOC(=O)c1cc(C(=O)OCC)c(=O)[nH]c1C	0.6	0.68	.	-6	0.5	.	.	.	-16	.
Cc1cccc(N2CCN(C(=O)CCC(=O)N3CC(C)Oc4ccc(C)cc43)CC2C)c1 (stereo not given)	3.5	0.82	i	-3	0.8	-22	-51	9.9	16	1.4
COCCn1c(=S)[nH]c2sc3c(c2c1=O)CCC(C)C3 (stereo not given)	4.9	0.67	i	-5	0.1	-3	-27	-1.5	-33	1.5
CN(C(=O)Cn1cnc([N+](=O)[O-])n1)C1CCCCC1	4.2	0.69	i	.	0.2	-14	5	-0.5	26	0.1
COc1ccc(NC(=S)NCCCN2CCCC2)cc1	2.0	0.64	i	-4	-0.2	13	20	3.2	-11	-4.8
O=C(COC(=O)CCC(=O)c1ccccc1)NNC(=O)c1ccc(Cl)cc1	1.9	0.67	i	-6	1.0	1	3	-0.3	1	0.1
O=C(O)CN1C(=O)/C(=C/c2ccccc2Cl)Oc2ccccc21	-170	0.68	i	-4	0.5	-11	-9	4.8	-16	-2.7
CCOC(=O)c1ccc(NC(=S)Nc2cc(C)cc(C)n2)cc1	5.4	0.66	i	-4	0.4	6	2	-1.6	-3	-1.9
Cc1cc(C(=O)Nc2ccc(OCc3ccccc3)cc2)c(C)o1	2.7	0.72	i	22	-11	-16	-8	3.0	46	1.2
C=C(C)c1ccccc1NC(=O)CCN1C(=O)c2ccccc2S1(=O)=O	2.9	0.7	i	3	-0.2	2	-5	0.2	-9	-2.8
COc1ccc(C)cc1NS(=O)(=O)c1ccc(NC(=O)CN(c2cc([N+](=O)[O-])ccc2C)S(C)(=O)=O)cc1	5.5	0.72	.	112*	0.6	.	.	.	50	.
CCOC(=O)[C@H]1[C@H]2COc3ccc(Br)cc3[C@@H]2N2C(=O)c3cc(F)c(F)cc3NC(=O)[C@@]12C	3.0	.	i	5	0.6	-5	-11	-3.4	.	4.6
CCc1c(C)c2c(C)nn(-c3ccccc3)c2[nH]c1=O	-0.3	0.67	.	4	0.3	.	.	.	-5	.
Cc1cc2cc3c(cc2nc1SCC(=O)O)OCCO3	-3.4	0.67	.	2	-0.1	.	.	.	-4	.
CC1=C/C(=C\C=C(C#N)C#N)N(C)c2ccccc21	7.1	0.67	i	3	-0.2	16	15	4.0	24	1.0
CCOc1ccc(OCC)c(NC(=O)C2CCN(S(=O)(=O)c3c(C)noc3C)CC2)c1	-0.2	0.69	.	-3	0.1	.	.	.	9	.
Cc1ccc2c(c1)CCCN2S(=O)(=O)c1cccc(C(=O)Nc2ccccc2C(=O)O)c1	.	.	.	3	0.0	-50	-75	-13	58*	-1.1
CC(=O)Nc1c(C)ccc(CNC(=O)COc2cc(C)ccc2C)c1C	5.1	0.67	.	6	-1.4	.	.	.	-1	.
COc1ccc(C)cc1NC(C)C(=O)NC(=O)NC1CCCCC1 (stereo not given)	1.3	0.69	i	0	-0.3	-4	-10	1.4	.	8.5
Cc1[nH]c2ccccc2c1C(=O)CN1C(=O)NC(C)(c2ccc(Cl)cc2Cl)C1=O (stereo not given)	1.2	0.67	.	0	-0.8	.	.	.	16	.
COCCN(C(=O)COC(=O)/C=C/c1ccc2c(c1)OCO2)c1c(N)n(Cc2ccccc2)c(=O)[nH]c1=O	-37	0.7	i	-1	-0.2	11	8	-1.5	3	-0.5
Cc1[nH]n(C(C)(C)C)c(=O)c1Sc1ccc(Cl)cc1	3.9	0.72	.	-13	1.4	.	.	.	61*	.
CS(=O)(=O)c1ccc(NCCc2ccccn2)c([N+](=O)[O-])c1	5.4	0.69	i	7	-0.2	1	4	0.1	7	-5.2
CCCn1nc(NC(=O)c2ccncc2)c2cc3ccccc3nc21	-1.5	0.79	.	-1	0.1	.	.	.	1	.
Cc1cc(C)c(NC(=O)CCn2nnc3ccccc32)c(C)c1	2.7	0.72	.	.	-1.1	13	16	-0.9	-13	0.5
O=C(O)/C(=C\c1ccc(Cl)c([N+](=O)[O-])c1)c1ccc(S(=O)(=O)N2CCCCC2)s1	.	.	i	-3	-0.1	-21	-35	-12	1	-1.4
CCOc1ncccc1C(=O)OCC(=O)Nc1nnc(-c2ccccc2)o1	2.7	0.68	i	-2	1.1	-1	-18	-3.9	-6	-0.8
CCOC(=O)[C@@H]1[C@H]2COc3ccccc3[C@H]2N2C(=O)N(c3cccc(Cl)c3)C(=O)[C@@]12C	3.0	.	.	8	?	.	.	.	5	.
CC1CCC(NC(=O)c2cnccn2)CC1 (stereo not given)	-1.2	0.72	.	-8	0.1	.	.	.	-7	.
CCNC(=O)COC(=O)CCNC(=O)c1ccc(Cl)cc1	1.3	0.67	i	-1	-0.4	3	7	7.6	-11	-4.8
O=S(=O)(NCCSCc1ccc(Cl)c(Cl)c1)c1ccc2c(c1)OCCO2	5.1	0.71	.	4	-0.4	.	.	.	4	.
O=C(NCc1ccccn1)c1ccc(Cn2c(=S)[nH]c3ccccc3c2=O)cc1	3.0	0.72	.	7	-0.5	.	.	.	5	.
CC1CC(=O)N(CC(=O)NCc2ccc(F)cc2)c2ccccc2S1(=O)=O (stereo not given)	-1.4	0.66	i	-4	0.5	0	4	0.3	-4	0.1
CCOC(=O)C1CCCN(C2CC(=O)N(c3ccc(NC(C)=O)cc3)C2=O)C1 (stereo not given)	3.7	0.65	i	-8	0.1	18	13	2.8	-9	-1.0
Cc1cnc(NC(=O)CSc2ncc(-c3ccccc3)n2Cc2ccco2)s1	3.9	0.75	.	.	-0.4	.	.	.	23	.
CC(=O)NS(=O)(=O)c1ccc(NC(=S)Nc2ccccc2)cc1	4.5	0.67	i	-1	0.7	4	9	-0.4	-16	0.1
CCOC(=O)C1CN(c2cc3c(cc2F)c(=O)c(C(=O)O)cn3CC)OC1C(=O)OCC (stereo not given)	-2.8	0.66	.	-11	1.5	.	.	.	7	.
COc1ccc(NS(=O)(=O)c2ccc(NC(=S)NC(=O)c3ccc(Br)cc3)cc2)nn1	2.1	0.64	i	-3	0.3	-12	-27	0.1	-2	-1.5
Cc1ccc(/C=C/C(=O)N2CCN(c3ccc(F)cc3)CC2)o1	10	0.68	i	-8	-0.2	.	.	.	-13	2.7
COc1ccc(N2CCN(S(=O)(=O)c3ccc(Cl)c(C(F)(F)F)c3)CC2)cc1	0.7	0.73	.	0	0.4	.	.	.	-11	.

Full records, looked up by structure. Order of values: UCH37 inh	Ecoli growth	FGF22 binding	Beta cell apopt	Bfl-1 A1 inh	rRNA inh HTS	rRNA inh HTS OD600	rRNA inh HTS RFP	T cruzi inh	AF4-AF9 inh
`Cc1[nH]n(C(C)(C)C)c(=O)c1Sc1ccc(Cl)cc1` is entered as 3.9	0.72	.	-13	1.4	.	.	.	61*	.
`CC1CC(=O)N(CC(=O)NCc2ccc(F)cc2)c2ccccc2S1(=O)=O` (stereo not given) is entered as -1.4	0.66	i	-4	0.5	0	4	0.3	-4	0.1

(list continues)
SMILES	UCH37 inh	Ecoli growth	FGF22 binding	Beta cell apopt	Bfl-1 A1 inh	rRNA inh HTS	rRNA inh HTS OD600	rRNA inh HTS RFP	T cruzi inh	AF4-AF9 inh
Cn1c(N)c(N=Cc2ccccc2)c(=O)n(C)c1=O	1.1	0.68	i	.	.	7	4	-0.1	.	0.9
CCn1nnc(NC(=O)C(C)Oc2ccc(Cl)cc2Cl)n1 (stereo not given)	1.4	0.67	.	-4	-3.3	.	.	.	-7	.
CC(C)C(C(=O)Nc1ccncc1)c1ccc(Cl)cc1 (stereo not given)	-2.2	0.67	i	-6	-0.2	-45	-68	-10	27	-3.9
CSc1nc(SC(C)C(=O)O)c2c3c(sc2n1)COC(C)(C)C3 (stereo not given)	-20	0.7	i	-10	1.7	-23*	-1.1*	-0.3*	26	3.6
